From PubChem
MITF inh: blocks MITF activity | TRPM1 promoter luciferase, luminescence, 24 h | inhibition, % (concentration not given with the values) | actives 0.28% (n = 37,000) | AID 2240;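 active means most replicates at 85% or more, or half of them and the mean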;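 further: human melanocyte line stably carrying TRPM1 promoter luciferase reporter; 0% = vehicle wells and 100% = a positive control; the first replicate is given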
YB-1 expr inh: YB-1 expression inhibition; U2OS, qRT-PCR YB-1 vs CDIP delta delta Cp, 16 h; hits give high values; zero = DMSO, each unit about twofold; delta delta Cp (YB-1 minus CDIP) (concentration not given with the values); actives 0.37% (n = 30,000); AID 434959;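 active means delta delta Cp rounded down to an integer at or above 3, about 3 SD of DMSO wells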;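 further: higher means less YB-1 transcript or more CDIP transcript relative to DMSO; stock transfer was 100 nL into about 100 µL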
Numbers without * were called inactive; nt = no result given. Not all compounds are listed; rates above refer to the full screens.

1) CCCCn1c(=O)c(C(=O)NCc2ccccn2)c(O)c2ccccc21
  MITF inh = 32	YB-1 expr inh = nt
2) COc1cccc(CNCCc2c[nH]c3ccccc23)c1O
  MITF inh = -6	YB-1 expr inh = nt
3) Cc1cc(OCc2cc(C(=O)O)oc2C)c2c3c(c(=O)oc2c1)CCCC3
  MITF inh = 9	YB-1 expr inh = nt
4) Cc1ccc(N2C(=O)NC(=O)C(CCc3ccccn3)(Cc3ccc(F)cc3)C2=O)cc1 (stereo not given)
  MITF inh = 12	YB-1 expr inh = nt
5) C[C@H]1CN([C@@H](C)CO)C(=O)CCCn2cc(nn2)CO[C@@H]1CN(C)C(=O)Oc1cccc2ccccc12
  MITF inh = nt	YB-1 expr inh = 0.44
6) C[C@H](CO)N1C[C@H](C)[C@H](CN(C)C(=O)Oc2ccc3ccccc3c2)OCc2cnnn2CCCC1=O
  MITF inh = nt	YB-1 expr inh = -0.073
7) C[C@@H]1CN([C@H](C)CO)C(=O)CCCn2cc(nn2)CO[C@@H]1CN(C)C(=O)Oc1ccc2ccccc2c1
  MITF inh = nt	YB-1 expr inh = -0.28
8) COc1ccc(OC(=O)N(C)C[C@@H]2OCc3cnnn3CCCC(=O)N([C@H](C)CO)C[C@@H]2C)cc1
  MITF inh = nt	YB-1 expr inh = 0.075
9) COc1ccc(OC(=O)N(C)C[C@@H]2OCc3cnnn3CCCC(=O)N([C@@H](C)CO)C[C@H]2C)cc1
  MITF inh = nt	YB-1 expr inh = 0.25
10) C[C@@H]1CN([C@H](C)CO)C(=O)CCCn2cc(nn2)CO[C@H]1CN(C)C(=O)Oc1ccc2ccccc2c1
  MITF inh = nt	YB-1 expr inh = 0.022
11) C[C@H](CO)N1C[C@H](C)[C@H](CN(C)C(=O)Oc2ccccc2)OCc2cnnn2CCCC1=O
  MITF inh = nt	YB-1 expr inh = 0.45
12) C[C@@H]1CN([C@H](C)CO)C(=O)CCCn2nncc2CO[C@@H]1CN(C)C(=O)Oc1ccc2ccccc2c1
  MITF inh = nt	YB-1 expr inh = -0.037

Given with bars between the fields: 5 of the compounds above.
no. | mol | MITF inh | YB-1 expr inh
10 | C[C@@H]1CN([C@H](C)CO)C(=O)CCCn2cc(nn2)CO[C@H]1CN(C)C(=O)Oc1ccc2ccccc2c1 | nt | 0.022
5 | C[C@H]1CN([C@@H](C)CO)C(=O)CCCn2cc(nn2)CO[C@@H]1CN(C)C(=O)Oc1cccc2ccccc12 | nt | 0.44
4 | Cc1ccc(N2C(=O)NC(=O)C(CCc3ccccn3)(Cc3ccc(F)cc3)C2=O)cc1 (stereo not given) | 12 | nt
3 | Cc1cc(OCc2cc(C(=O)O)oc2C)c2c3c(c(=O)oc2c1)CCCC3 | 9 | nt
11 | C[C@H](CO)N1C[C@H](C)[C@H](CN(C)C(=O)Oc2ccccc2)OCc2cnnn2CCCC1=O | nt | 0.45

Quoted from the listing.
Reading of cpd 10 under YB-1 expr inh: 0.022
Reading of cpd 12 under YB-1 expr inh: -0.037
Reading of cpd 8 under YB-1 expr inh: 0.075
